# ALR inh: human ALR oxidase inhibition via reduced H2O2 | AID 485317 | actives 3.8% (n = 290,000) | inhibition, % (test concentration not listed) | P55789 | purified ALR, DTT oxidation, H2O2 HRP-luminol luminescence;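 active = mean and each replicate at 75% or more; inconclusive = only one of the two met; inactive = neither met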;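 also: stock transfer was 7.5 nL into about 7.5 µL; 0% = neutral wells and 100% = wells with inactivated enzyme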
# T cruzi repl: T. cruzi replication inhibition; T. cruzi beta-gal in NIH3T3, luminescence, 90 h; inhibition, % (no concentration beside the values); actives 1.4% (n = 300,000);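 active = mean inhibition across valid replicates above about 55%, limit read from the data; inconclusive = mean below that limit but half or more replicates reach it; inactive = mean below it, under half of replicates reach it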;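 also: signal also drops with host cell toxicity which is not excluded here; 0% = plate median of DMSO wells and 100% = zero luminescence signal; higher percent means less beta-gal luminescence so fewer parasites; stock transfer was 50 nL into about 50 µL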
# Calb FLC: C. albicans growth modulation with fluconazole. actives 0.57% (n = 300,000). growth inhibition, % (no concentration beside the values). C. albicans CaCi-2 (fluconazole-resistant clinical isolate) + fluconazole, Alamar Blue growth, 48 h. AID 1979;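 active = most replicates above 75%; inconclusive = exactly half above 75%; inactive = most below 75%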;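 also: all wells also contain fluconazole at 8 µg/ml as a sub-toxic cotreatment; 0% = median of DMSO wells and 100% = median of geldanamycin control wells; wells of about 8 µL received 7.5 nL stock; the first replicate is given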
# LANA-H2B inh: blocks KSHV LANA binding to histone H2A/H2B | Q9QR71 | cell-free LANA-H2A/H2B peptide, fluorescence polarization | inhibition, % (no concentration beside the values) | actives 0.6% (n = 320,000); in the data active = inhibition mostly above about 10%, no sharp cut-off; inactive = mostly below about 6.7%;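 also: stock transfer was 7.5 nL into about 10 µL; 0% = median of vehicle wells and 100% = median of positive control wells; one replicate is shown; the record names a cut of 25% in any replicate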
# Target sequence (Q9QR71 whole entry, looked up): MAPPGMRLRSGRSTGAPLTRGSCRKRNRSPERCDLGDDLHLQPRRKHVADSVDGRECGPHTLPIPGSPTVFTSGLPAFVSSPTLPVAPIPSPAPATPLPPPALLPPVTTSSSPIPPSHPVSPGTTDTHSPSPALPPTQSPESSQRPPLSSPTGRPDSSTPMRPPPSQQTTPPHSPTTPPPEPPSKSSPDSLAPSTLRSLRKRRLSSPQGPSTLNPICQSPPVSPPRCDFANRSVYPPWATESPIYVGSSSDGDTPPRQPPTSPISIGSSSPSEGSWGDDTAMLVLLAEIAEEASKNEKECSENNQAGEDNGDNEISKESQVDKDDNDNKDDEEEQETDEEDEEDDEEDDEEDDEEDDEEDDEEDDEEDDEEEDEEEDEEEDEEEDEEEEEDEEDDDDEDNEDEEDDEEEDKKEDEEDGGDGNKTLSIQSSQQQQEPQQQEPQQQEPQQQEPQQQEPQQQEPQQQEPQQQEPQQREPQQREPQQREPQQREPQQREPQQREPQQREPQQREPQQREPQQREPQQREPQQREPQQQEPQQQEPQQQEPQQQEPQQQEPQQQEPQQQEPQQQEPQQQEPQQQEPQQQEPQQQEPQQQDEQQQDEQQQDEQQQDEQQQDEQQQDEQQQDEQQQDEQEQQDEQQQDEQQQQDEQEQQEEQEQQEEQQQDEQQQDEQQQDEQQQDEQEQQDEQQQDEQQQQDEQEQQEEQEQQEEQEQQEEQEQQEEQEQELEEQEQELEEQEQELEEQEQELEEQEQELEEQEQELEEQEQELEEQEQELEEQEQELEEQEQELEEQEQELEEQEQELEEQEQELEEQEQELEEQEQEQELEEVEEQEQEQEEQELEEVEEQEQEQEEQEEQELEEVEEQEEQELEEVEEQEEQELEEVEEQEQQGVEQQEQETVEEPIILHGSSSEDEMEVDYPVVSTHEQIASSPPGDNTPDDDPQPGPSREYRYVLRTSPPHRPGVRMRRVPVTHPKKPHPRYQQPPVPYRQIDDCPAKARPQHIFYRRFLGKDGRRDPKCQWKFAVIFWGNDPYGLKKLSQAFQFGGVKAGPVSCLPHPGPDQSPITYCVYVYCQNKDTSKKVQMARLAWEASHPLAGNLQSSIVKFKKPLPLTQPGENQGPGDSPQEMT
# A1 inh: inhibitors of the anti-apoptotic protein A1, read as caspase activation | MEF A1-2A-BIM cells, Caspase-Glo 3/7 luminescence, 3 h; percent of clofoctol response, vehicle zero | caspase activation, % (test concentration not listed) | actives 0.066% (n = 330,000);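 active = over half of replicate activation scores above 10%, or exactly half above 10 with the replicate mean above 10; inconclusive = replicate mean below 10 yet half the replicates above 10; inactive = over half of replicates below 10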;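 also: wells of about 30 µL received 50 nL stock; many hits fall short of the cut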
# Beta cell apopt: blocks beta cell apoptosis. protection from apoptosis, % (test concentration not listed). AID 435005. INS-1E cytokine-induced death, ATP luminescence, 48 h; percent of positive-control rescue, neutral wells zero. actives 0.8% (n = 300,000);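 active = all replicates at 75% or more, or half of them and the mean; inconclusive = half reach 75% but not the mean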;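 also: 0% = cytokine-treated negative control wells and 100% = positive control rescue; higher means more ATP so stronger rescue from cytokine killing; wells of about 40 µL received 100 nL stock; the first replicate is given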
# Ecoli rRNA inh: selective bacterial rRNA inhibition in E. coli. E. coli WT GFP vs humanized-ribosome RFP mutants, fluorescence, 24 h; active compounds read low; DMSO median 0, no signal -100. GFP signal change (wild-type ribosome), % (test concentration not listed). actives 1.6% (n = 350,000). AID 720706;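 active = significant combined selectivity score with lowered wild-type GFP, culture density cut under 30%, mutant RFP and density less affected; inactive = any of these conditions unmet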; also: one replicate is shown; some compounds called inactive have numbers as strong as hits
# Beta2AR agonist: activates human beta-2 adrenergic receptor causing internalization; actives 0.43% (n = 340,000); response, % (no concentration beside the values); P07550; Am2.2-beta2AR cells, FAP receptor internalization, flow cytometry; reference of the scale not given here;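 active = response above a set limit, near 3 SD of response in nonfluorescent compounds, cut at about 42% in these data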;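 also: stock transfer was 100 nL into about 11 µL; a reference agonist was the positive control; negative values mostly stem from fluorescent compounds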
# Ecoli rRNA inh OD600: second read-out of Ecoli rRNA inh, no call of its own (marks repeat the call); OD600 change, %; measured here: OD600 growth;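 optical density of the mix in the first replicate; 0 = DMSO median and -100 = no signal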
# Ecoli rRNA inh RFP: further read-out of Ecoli rRNA inh, marked with its call; RFP signal change, %; measured here: RFP humanized mutant strains;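 first replicate; 0 = DMSO median and -100 = no signal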
# * = called active by the depositor; ? = inconclusive; . = not tested or not shown. This is a subset; the hit share may differ from the screen's.
SMILES,ALR inh,T cruzi repl,Calb FLC,LANA-H2B inh,A1 inh,Beta cell apopt,Ecoli rRNA inh,Ecoli rRNA inh OD600,Ecoli rRNA inh RFP,Beta2AR agonist
N#Cc1ccccc1NS(=O)(=O)c1cc2c3c(c1)CCC(=O)N3CCC2,.,35,3,0.9,0.5,4,7,-2,-1.2,5
O=C(COc1ccccc1)Nc1ccc(Cl)c(-c2nc3ncccc3o2)c1,-7,.,.,0.8,-1.0,1,.,.,.,-12
O=C(CCCN1C(=O)/C(=C/c2ccccc2Cl)SC1=S)NNC(=O)c1ccccc1,18,12,-10,6.7,-4.7,-13,3,4,15,17
CN(C)C(=O)N1CCN(C(=O)N2CCOCC2)CC1,0,-2,-7,-2.0,-0.5,-1,.,.,.,-2
O=C(Cc1nc2ccccc2[nH]1)NCc1ccco1,-5,-4,-5,-0.9,-0.3,-1,.,.,.,-8
Cc1cccc(Nc2ncnc(N)n2)c1,-15,3,10,2.0,-1.2,.,36,24,0.4,-4
CC(=O)N1CCCc2cc(S(=O)(=O)N3CCCC(C(=O)Nc4cccc(F)c4)C3)ccc21 (configuration not stated),-4,-3,-22,-0.7,-0.6,-5,-2,0,6.5,-4
COC(=O)C1CCN(C(=O)COc2cc3sc(C)nc3c3sccc23)CC1,.,0,40,-1.4,0.3,0,.,.,.,0
CC(=O)c1c(Cl)nc2ccc(Br)cc2c1-c1ccccc1,-10,1,-1,0.3,-0.3,.,12,7,1.5,3
COc1ccc(Cl)cc1N1C(=O)CC(N2CCc3ccccc32)C1=O (configuration not stated),41,-3,9,1.9,0.3,-4,.,.,.,5
C=C1CCN([C@@H](C)C(=O)OCc2ccc(C)cc2)S(=O)(=O)c2ccccc21,-7,-11,3,1.0,1.8,-1,-15,-28,-2.6,6
COc1ccc(C(=O)Nc2ccccc2C(=O)NCc2ccco2)cc1,-4,8,6,-3.6,-0.8,0,1,7,-0.3,-5
COC(=O)C1C/C(=N\NS(=O)(=O)c2ccc(C)cc2)c2ccsc2C1 (configuration not stated),.,-20,5,-8.2,0.3,6,.,.,.,0
CCOCC(=O)Nc1cccc(SC)c1,-2,-7,-11,6.6,-0.6,-7,9,7,0.1,4
CCOc1ccc(NC(=O)c2c(NC(=O)CNCCN3CCOCC3)sc3c2CCC3)cc1,-6,61*,-3,-10,-0.7,.,-18,-23,0.3,8
CCOc1ccc(C(=O)Nc2ccc(N3CCN(S(C)(=O)=O)CC3)cc2)cc1[N+](=O)[O-],-7,-8,3,-0.4,-0.1,2,15,18,-3.6,5
O=C(c1ccncc1)N1CCN(C(=O)c2ccco2)CC1,1,-9,1,2.2,-0.5,1,.,.,.,-4
Cc1ccc(C2CC(=O)C(C=NCCN3CCN(C(=S)Nc4ccccc4)CC3)=C(O)C2)cc1 (configuration not stated),-3,-17,?,1.2,0.3,-11,.,.,.,-7
Cc1ccc(S(=O)(=O)NC(=O)NCc2ccc(Cl)cc2)cc1,9,-15,2,2.3,-0.5,-4,.,.,.,9
C=CCn1c(=O)c2c(nc3n2CCCN3CCc2ccc(OC)c(OC)c2)n(C)c1=O,-24,2,-6,1.8,-0.5,3,0,1,-1.5,2
COC(=O)c1cc2c(cc1NC(=O)CSCCc1ccccn1)OCO2,-5,4,-7,-1.1,0.3,0,.,.,.,-6
Nc1nc2ccc(C(=O)Nc3ccccc3)cc2s1,98*,-19,-32,-1.3,-0.3,-7,.,.,.,-6
CCc1nnc(NC(=O)CSc2nnc(-c3ccoc3C)n2-c2cccc(C)c2)s1,-10,-12,-23,-1.0,1.8,-4,.,.,.,2
Cc1ccc(C)c(NC(=O)CN(C)C(=O)c2nn(C)c(=O)c3ccccc23)c1,0,3,14,-0.7,1.4,-10,-3,-4,4.4,9
CCCC(c1nnnn1C1CCCC1)N1CCN(C(=O)c2ccco2)CC1 (configuration not stated),2,2,-26,-4.6,1.4,-11,.,.,.,-3
SMILES,ALR inh,T cruzi repl,Calb FLC,LANA-H2B inh,A1 inh,Beta cell apopt,Ecoli rRNA inh,Ecoli rRNA inh OD600,Ecoli rRNA inh RFP,Beta2AR agonist
CCOC(=O)C1CCN(c2ncnc3c2cnn3-c2ccccc2)CC1,-3,-9,-2,-4.6,0.6,0,.,.,.,3
COc1cc(CN2CCCC(CCC(=O)NCc3ccc(C)o3)C2)cc2c1OCO2 (configuration not stated),0,69*,-2,-4.3,-0.1,-5,12,4,1.0,4
CCCCCCCN1CCN=C1Nc1ccccc1,.,.,.,9.1,0.2,-6,8,9,5.4,6
CCCCn1c(N)c(N(CCC(C)C)C(=O)CC2CCCCC2)c(=O)[nH]c1=O,-3,5,8,-4.6,-0.4,2,8,13,-0.7,-4
CCCC(=O)C1=C(O)C(C(=O)OC)C(C)(C)CC1=NCCc1ccc(OC)c(OC)c1 (configuration not stated),-17,-1,-7,-3.6,0.7,9,0,-5,2.7,2
COC(=O)C1CCN(c2cc(Cl)nc(N)n2)CC1,-2,-7,-22,7.9,-0.9,-8,19,4,-1.1,2
COc1cccc(CN2CCNC(=O)C2CC(=O)N(C)C2CCOCC2)c1 (configuration not stated),-90,-6,15,0.3,0.5,2,0,9,3.0,5
O=S(=O)(c1ccc(Cl)s1)N1CCN(C/C=C/c2ccccc2)CC1,-9,9,10,-2.6,1.0,.,.,.,.,18
COc1ccc(CNC(=O)COC(=O)CN2C(=O)C3CC=CCC3C2=O)cc1 (configuration not stated),-14,.,.,9.1,-1.8,-1,17,26,0.8,7
O=S(=O)(c1cccc(-c2nnc(-c3cccnc3)o2)c1)N1CCCCC1,-3,0,0,1.8,-0.2,-1,.,.,.,-1
COc1cccc2[nH]c(C(=O)NCCc3ccccc3)cc12,-7,-1,7,3.8,0.3,5,-12,-14,5.5,2
Cc1ccccc1C(=O)OCC(=O)Nc1cccc(S(=O)(=O)NC2=NCCC2)c1,3,.,.,-1.7,1.1,-7,-7,1,-0.6,2
Cc1cc(C)c(NC(=O)CNC(=O)COC(=O)CNC(=O)c2ccc(Cl)cc2Cl)c(C)c1,-2,-5,-1,4.7,0.6,.,1,0,-2.9,2
COc1ccc(NC(=O)CN(C)C(=O)c2cc3c(s2)CCC(C)C3)cc1 (configuration not stated),-4,-1,8,1.2,-0.2,-2,-11,-13,-2.8,3
CCc1ccc(N2CC(C(=O)N3CCN(c4ccccn4)CC3)CC2=O)cc1 (configuration not stated),-4,-4,3,5.3,0.1,8,5,5,0.2,-2
COC1CCCCC1NS(=O)(=O)c1ccc(Cl)cc1 (configuration not stated),-14,-8,-16,-1.9,-0.6,.,7,3,1.1,5
COc1ccc(C=O)cc1COc1ccccc1F,2,-6,12,-0.3,-0.2,.,.,.,.,-2
O=C(O)COc1ccc(/C=N/NC(=O)C2CCCN2S(=O)(=O)c2ccc(Cl)cc2)cc1 (configuration not stated),-4,-1,3,1.6,0.9,-5,.,.,.,-8
O=Cc1c[nH]c2ccc(S(=O)(=O)N3CCOCC3)cc12,-5,-7,35,1.5,1.3,.,13,8,-6.4,-1
CCOc1ccccc1NC(=O)c1ccc(S(=O)(=O)N2CCOCC2)cc1,-14,2,-5,-1.1,0.1,-8,.,.,.,2
COc1ccc(-c2nnc(NC(=O)CSc3ccc(Cl)cc3)s2)cc1OC,3,3,-19,1.4,1.0,-6,.,.,.,-8
COc1cccc(N=C2NC(=O)/C(=C/c3cc([N+](=O)[O-])ccc3O)S2)c1,45,4,.,-5.4,0.2,-13,24,8,2.8,-62
O=C(Nc1ccc(F)cc1F)c1ccc2c(c1)OCCO2,0,-13,-19,-5.4,-4.7,4,7,8,-3.1,-3
CCOC(=O)C(NCc1ccccc1)(NC(=O)c1ccccc1)C(F)(F)F (configuration not stated),-1,-12,-10,0.2,0.6,-2,.,.,.,3
COC(=O)C(C)Sc1ccc2nnc(CCNS(=O)(=O)c3ccc(C)cc3)n2n1 (configuration not stated),-4,1,0,2.9,0.2,-2,-7,-10,5.7,5

# The last two compounds of the section before are carried over, then new ones follow.
SMILES,ALR inh,T cruzi repl,Calb FLC,LANA-H2B inh,A1 inh,Beta cell apopt,Ecoli rRNA inh,Ecoli rRNA inh OD600,Ecoli rRNA inh RFP,Beta2AR agonist
CCOC(=O)C(NCc1ccccc1)(NC(=O)c1ccccc1)C(F)(F)F (configuration not stated),-1,-12,-10,0.2,0.6,-2,.,.,.,3
COC(=O)C(C)Sc1ccc2nnc(CCNS(=O)(=O)c3ccc(C)cc3)n2n1 (configuration not stated),-4,1,0,2.9,0.2,-2,-7,-10,5.7,5
CC(O)[C@H]1CN=C(N)N1CC(C)(C)C (some centres not stated),-1,-8,0,1.5,0.8,-2,1,-3,-4.1,-5
COc1cc(CNc2ccc(CNc3ncn[nH]3)cc2)ccc1OCc1ccccc1,-11,-9,-5,-2.4,-1.7,-10,.,.,.,2
O=C(CNC(=O)Cc1ccccc1)NCC(=O)OCC(=O)c1ccc(F)cc1,-4,-3,14,9.2,0.6,-3,15,20,2.4,15
O=C(NCC(c1ccco1)N1CCc2ccccc21)c1ccccc1Br (configuration not stated),45,13,-1,5.4,0.3,1,-17,-26,-1.6,-4
COc1ccc(OC)c(C(c2nnnn2CC2CCCO2)N2CCN(C3CCCC3)CC2)c1 (configuration not stated),-2,2,20,0.9,0.4,.,.,.,.,-1
Cc1ccc(S(=O)(=O)NC(=O)Nc2c(C)cccc2C)cc1,4,-13,-12,-1.0,0.6,-8,5,12,0.1,0
COc1ccc(S(=O)(=O)n2ccc(C)n2)cc1C,-6,-7,-2,3.9,0.1,-3,-1,-3,-3.9,12
CCCCN(C(=O)CSc1nnc(-c2ccc(OC)cc2)n1C(C)C)c1c(N)n(Cc2ccccc2)c(=O)[nH]c1=O,4,-6,-2,4.3,-0.2,-9,7,10,2.2,-9
CC(=O)N1CCN(CC(=O)Nc2ccc(SC(F)F)cc2)CC1,-2,-4,-1,6.1,0.5,-4,.,.,.,-1

# In the list so far, six contain an NH in an aromatic ring.
SMILES,ALR inh,T cruzi repl,Calb FLC,LANA-H2B inh,A1 inh,Beta cell apopt,Ecoli rRNA inh,Ecoli rRNA inh OD600,Ecoli rRNA inh RFP,Beta2AR agonist
O=C(Cc1nc2ccccc2[nH]1)NCc1ccco1,-5,-4,-5,-0.9,-0.3,-1,.,.,.,-8
CCCCn1c(N)c(N(CCC(C)C)C(=O)CC2CCCCC2)c(=O)[nH]c1=O,-3,5,8,-4.6,-0.4,2,8,13,-0.7,-4
COc1cccc2[nH]c(C(=O)NCCc3ccccc3)cc12,-7,-1,7,3.8,0.3,5,-12,-14,5.5,2
O=Cc1c[nH]c2ccc(S(=O)(=O)N3CCOCC3)cc12,-5,-7,35,1.5,1.3,.,13,8,-6.4,-1
COc1cc(CNc2ccc(CNc3ncn[nH]3)cc2)ccc1OCc1ccccc1,-11,-9,-5,-2.4,-1.7,-10,.,.,.,2
CCCCN(C(=O)CSc1nnc(-c2ccc(OC)cc2)n1C(C)C)c1c(N)n(Cc2ccccc2)c(=O)[nH]c1=O,4,-6,-2,4.3,-0.2,-9,7,10,2.2,-9

# Compound activity deposited in PubChem by several laboratories.
